From PubChem
TRPML1 agonist: agonists of human TRPML1 channel. Q9GZU1. TRPML1-expressing cells, Ca2+ dye fluorescence, FDSS; host cell line not named in the record; reference of the full effect not given here. activation, % (test concentration not listed). hit rate 0.12% among 410,000. AID 624414; in the data active = activation above about 50%; inconclusive = about 30% to 50%; inactive = below about 30%; note: 0% is about no effect; the text of the record puts the active cut at 80%
Target sequence (Q9GZU1 whole entry, looked up): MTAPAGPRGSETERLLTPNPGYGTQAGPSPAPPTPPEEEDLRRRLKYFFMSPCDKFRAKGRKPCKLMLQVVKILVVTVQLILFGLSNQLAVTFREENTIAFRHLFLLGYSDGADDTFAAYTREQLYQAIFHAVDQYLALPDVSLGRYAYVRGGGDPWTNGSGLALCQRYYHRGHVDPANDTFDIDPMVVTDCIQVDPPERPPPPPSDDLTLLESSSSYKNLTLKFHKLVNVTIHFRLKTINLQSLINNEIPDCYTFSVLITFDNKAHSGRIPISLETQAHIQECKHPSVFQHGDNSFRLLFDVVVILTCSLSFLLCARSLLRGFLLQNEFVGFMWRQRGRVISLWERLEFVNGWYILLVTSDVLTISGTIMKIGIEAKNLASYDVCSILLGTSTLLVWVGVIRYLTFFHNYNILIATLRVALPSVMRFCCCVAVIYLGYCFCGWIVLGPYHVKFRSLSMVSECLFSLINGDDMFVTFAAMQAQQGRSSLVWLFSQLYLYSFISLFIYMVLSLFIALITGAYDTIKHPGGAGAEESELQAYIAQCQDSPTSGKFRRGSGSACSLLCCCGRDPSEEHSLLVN
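Tet-induced TRPML1-DL cells, 1,500 per well, cultured overnight, were loaded with a no-wash Ca2+ dye for 45–90 min. Calcium fluorescence was recorded on the FDSS for 110 s after compound addition, before the EC80 agonist (4 uM 54-4) was added.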
PINK1 modulator: modulators of PINK1 expression; PINK1 immunofluorescence, high-content cytometry, 24 h; Potency, µM (highest dose often 76.6 µM), for inactives: at the top dose activation (PINK1 increase), most hits filed as activators; hit rate 0.2% among 410,000; active = well fitted activation curve with a large enough effect; inconclusive = small, poorly fitted or top-dose-only effect; inactive = flat fitted curve, though single readings scatter; cell line not stated here;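 note: potency is the fitted concentration of half-maximal effect; % of control where 0% means no effect; nearly all actives have a fitted effect of over 65% in size; a mitochondrial uncoupler was the plate control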
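Decision-based qHTS: stable cells, 24 h exposure to five compound concentrations, CCCP as control. Fixed cells stained for PINK1 plus nuclear, mitochondrial and cell markers, cytometer read.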
* = called active by the depositor; [ ] = dose if it differs, or a comment.

Screening CC1CCC(C(C)C)C(=O)C1 (configuration not stated) returned PINK1 modulator -0.5%.
Screening COc1ccc(-c2cc(=O)c3c(O)c(OC)c(OC)c(OC)c3o2)cc1OC returned PINK1 modulator 1.1%.
Cn1c(=O)n(-c2ccc(C(C)(C)C#N)cc2)c2c3cc(-c4cnc5ccccc5c4)ccc3ncc21 was read as TRPML1 agonist -0.6 and PINK1 modulator -0.2%[153 µM].
`CCCCCCCCCCCCCC[N+](C)(C)Cc1ccccc1` gave TRPML1 agonist -0.2 and PINK1 modulator 0.7%.
CC(=O)O[C@@]12CO[C@@H]1C[C@H](O)[C@@]1(C)C(=O)[C@H](O)C3=C(C)[C@@H](OC(=O)C(O)[C@@H](NC(=O)OC(C)(C)C)c4ccccc4)C[C@@](O)([C@@H](OC(=O)c4ccccc4)[C@H]21)C3(C)C (some centres not stated) was read as TRPML1 agonist -0.7 and PINK1 modulator 6.6%.
`NC1(c2ccc(-c3nc4ccn5c(=O)[nH]nc5c4cc3-c3ccccc3)cc2)CCC1` gave TRPML1 agonist 0.4 and PINK1 modulator -0.8%.

Two entries picked at random from those above, as already listed:
Cn1c(=O)n(-c2ccc(C(C)(C)C#N)cc2)c2c3cc(-c4cnc5ccccc5c4)ccc3ncc21 was read as TRPML1 agonist -0.6 and PINK1 modulator -0.2%[153 µM].
Screening COc1ccc(-c2cc(=O)c3c(O)c(OC)c(OC)c(OC)c3o2)cc1OC returned PINK1 modulator 1.1%.

Part of the list above in order of molecular weight, rising:
Screening COc1ccc(-c2cc(=O)c3c(O)c(OC)c(OC)c(OC)c3o2)cc1OC returned PINK1 modulator 1.1%.
`NC1(c2ccc(-c3nc4ccn5c(=O)[nH]nc5c4cc3-c3ccccc3)cc2)CCC1` gave TRPML1 agonist 0.4 and PINK1 modulator -0.8%.
CC(=O)O[C@@]12CO[C@@H]1C[C@H](O)[C@@]1(C)C(=O)[C@H](O)C3=C(C)[C@@H](OC(=O)C(O)[C@@H](NC(=O)OC(C)(C)C)c4ccccc4)C[C@@](O)([C@@H](OC(=O)c4ccccc4)[C@H]21)C3(C)C (some centres not stated) was read as TRPML1 agonist -0.7 and PINK1 modulator 6.6%.

The list is partial. The share of hits here may be higher or lower than overall.
